High-throughput results as filed in PubChem.
Yeast UUG start: modulators of yeast start codon fidelity, primary screen, whole organism, S. cerevisiae, single point, plate reader. S. cerevisiae UUG-firefly luciferase reporter, luminescence/redox ratio. activity score, % at 18.7 µM. 350,000 tested, 0.13% active;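 active means replicate mean at a twofold rise or more, about +100% in these data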;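 further: firefly luciferase made from a UUG start codon reports start codon fidelity; reporter light over untreated wells divided by growth signal over untreated wells; some hits fall short of that in this replicate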
Starred values were filed as active, the others as inactive.

Yeast UUG start | structure
3.5 | Cc1ccccc1S(=O)(=O)N1C[C@@H](O)COC[C@H]2O[C@H](CC(=O)N3CCCCC3)CC[C@@H]21
8.4 | CO[C@H]1CN(C)C(=O)c2cc(NS(=O)(=O)c3ccc(C)cc3)ccc2OC[C@@H](C)N(C)C[C@H]1C
-16.1 | CN(C)C(=O)c1ccc(-c2ccc3c(c2)[C@H]2[C@H](CCN2C(=O)c2ccc4c(c2)OCO4)[C@H](CO)N3)cc1
-8.3 | CCCNC(=O)C[C@@H]1CC[C@@H]2[C@@H](COc3ccc(NC(=O)NC(C)C)cc3C(=O)N2C)O1
-7.7 | Cc1cc(C(=O)Nc2cccc3c2O[C@@H](CN(C)Cc2ccc(C(=O)O)cc2)[C@H](C)CN([C@@H](C)CO)C3=O)n(C)n1
10.5 | CO[C@@H]1CN(C)C(=O)c2ccc(NC(C)=O)cc2OC[C@H](C)N(C(=O)C2CCCCC2)C[C@H]1C
14.9 | COc1ccc(CN(C)C[C@@H]2Oc3ccc(NS(=O)(=O)c4ccccc4)cc3C(=O)N([C@H](C)CO)C[C@H]2C)cc1
-1.7 | C[C@@H]1CN([C@H](C)CO)C(=O)c2cc(NC(=O)C3CCCCC3)ccc2O[C@H]1CN(C)Cc1ccc(C(=O)O)cc1

Filtered by structure, the entries above with four or more nitrogen atoms.
Yeast UUG start | structure
-8.3 | CCCNC(=O)C[C@@H]1CC[C@@H]2[C@@H](COc3ccc(NC(=O)NC(C)C)cc3C(=O)N2C)O1
-7.7 | Cc1cc(C(=O)Nc2cccc3c2O[C@@H](CN(C)Cc2ccc(C(=O)O)cc2)[C@H](C)CN([C@@H](C)CO)C3=O)n(C)n1

Six compounds from above, sorted by SMILES length, descending.
Yeast UUG start | structure
-7.7 | Cc1cc(C(=O)Nc2cccc3c2O[C@@H](CN(C)Cc2ccc(C(=O)O)cc2)[C@H](C)CN([C@@H](C)CO)C3=O)n(C)n1
14.9 | COc1ccc(CN(C)C[C@@H]2Oc3ccc(NS(=O)(=O)c4ccccc4)cc3C(=O)N([C@H](C)CO)C[C@H]2C)cc1
8.4 | CO[C@H]1CN(C)C(=O)c2cc(NS(=O)(=O)c3ccc(C)cc3)ccc2OC[C@@H](C)N(C)C[C@H]1C
3.5 | Cc1ccccc1S(=O)(=O)N1C[C@@H](O)COC[C@H]2O[C@H](CC(=O)N3CCCCC3)CC[C@@H]21
10.5 | CO[C@@H]1CN(C)C(=O)c2ccc(NC(C)=O)cc2OC[C@H](C)N(C(=O)C2CCCCC2)C[C@H]1C
-8.3 | CCCNC(=O)C[C@@H]1CC[C@@H]2[C@@H](COc3ccc(NC(=O)NC(C)C)cc3C(=O)N2C)O1

Later entries
Yeast UUG start | structure
9.4 | O=C(C[C@@H]1CC[C@H]2NC[C@@H](O)COC[C@@H]2O1)NCCc1ccccc1
19.9 | O=C(C1CCOCC1)N1C[C@H]2[C@@H](c3ccccc31)[C@@H](CO)N2Cc1ccccc1Cl
-15.4 | CN(C)CC(=O)Nc1ccc2c(c1)[C@H]1C[C@@H](CC(=O)N(C)C)O[C@@H](CO)[C@H]1O2
34.4 | CN1c2ccc(-c3cccc(F)c3)cc2[C@@H]2[C@@H](CCN2C(=O)C2CC2)[C@@H]1CO
-3.4 | COc1ccc(NC(=O)Nc2ccc3c(c2)CC(=O)N([C@H](C)CO)C[C@H](C)[C@@H](CN(C)CC2CC2)O3)cc1
-8.2 | C[C@H](CO)N1C[C@H](C)[C@@H](CN(C)C)Oc2ccc(NC(=O)c3ccncc3)cc2CC1=O
10.2 | CN1CCN(C(=O)C[C@H]2CC[C@H]3[C@@H](COC[C@H](O)CN3Cc3cccc(Cl)c3)O2)CC1
-4.1 | CN(C)CC(=O)N1CC[C@@H]2[C@H]1c1cc(-c3ccccc3F)ccc1N(C)[C@@H]2CO
1.5 | CO[C@@H]1CN(C)C(=O)c2cc(NC(=O)c3ccccc3)ccc2OC[C@H](C)N(C(=O)CN(C)C)C[C@H]1C
22.2 | O=C(C1CCCCC1)N1[C@H](CO)[C@@H]2c3ccccc3N(S(=O)(=O)c3ccccc3)C[C@@H]21
-1.3 | O=S(=O)(c1ccc(F)cc1)N1CCCCN2[C@@H](CO)[C@H](c3ccc(-c4cncnc4)cc3)[C@@H]2C1
42.2 | CC(C)CC#Cc1ccc2c(c1)O[C@H](CN(C)Cc1ccccc1F)[C@@H](C)CN([C@@H](C)CO)S2(=O)=O
-4.0 | CN(C)CC#Cc1ccc([C@@H]2[C@@H](CO)N3CCCCN(C(=O)CN(C)C)C[C@@H]23)cc1
17.3 | C[C@H](CO)N1C[C@H](C)[C@H](CN(C)Cc2ccc(Oc3ccccc3)cc2)Oc2c(NC(=O)C3CCCCC3)cccc2C1=O
-8.4 | CC1C=NC(S(=O)(=O)N2CC[C@H]3[C@@H](CO)N(C)c4ccc(C#Cc5ccccc5)cc4[C@H]32)=N1 (stereo not given in full)
-19.1 | Cc1cccc(-c2ccc([C@H]3[C@H](CO)N4CCCCN(S(=O)(=O)c5cn(C)cn5)C[C@@H]34)cc2)c1
-7.5 | COCC(=O)N1[C@H](CNC(=O)c2ccccn2)[C@H](c2ccccc2)[C@@H]1CO
-0.4 | O=C([C@@H]1[C@@H](CO)[C@@H]2Cn3c(ccc(-c4ccccc4F)c3=O)[C@H]1N2C(=O)C1CC1)N1CCCCC1
11.2 | CCN1[C@@H]2c3ccc(-c4ccccc4OC)c(=O)n3C[C@@H]2[C@@H](CO)[C@@H]1C(=O)NCc1ccccc1
-0.6 | O=C(C[C@@H]1CC[C@H]2[C@@H](COC[C@H](O)CN2Cc2cccc(F)c2)O1)NCC1CCCCC1
-0.9 | COc1ccccc1C(=O)N1C[C@@H]2[C@H](c3ccccc31)[C@@H](CO)N2C(=O)C1CCOCC1
-13.9 | C/C=C/c1ccc([C@@H]2[C@H](CO)N(Cc3ccccn3)[C@H]2CNC(C)=O)cc1
1.9 | O=C(C[C@H]1CC[C@H]2[C@@H](COC[C@@H](O)CN2Cc2ccccc2)O1)NCc1ccccc1Cl
4.7 | CC(C)N(C[C@@H]1[C@H](c2ccccc2)[C@@H](CO)N1S(C)(=O)=O)C(=O)CN(C)C
-10.9 | COc1ccc(NC(=O)Nc2ccc3c(c2)C(=O)N([C@H](C)CO)C[C@H](C)[C@H](CN(C)C(=O)Nc2ccc(C(F)(F)F)cc2)O3)cc1
-7.4 | N#Cc1ccc(-c2ccc3c(c2)[C@H]2[C@H](CCN2C(=O)c2ccccc2F)[C@H](CO)N3)cc1
-18.2 | COc1ccc(C#Cc2ccc3c(c2)[C@H]2[C@H](CCN2S(=O)(=O)c2ccccc2C)[C@@H](CO)N3C)cc1
-4.0 | COc1ccccc1S(=O)(=O)N1CC[C@H]2[C@H](CO)Nc3ccc(-c4cccc(C#N)c4)cc3[C@H]21
5.0 | Cc1ccccc1-c1ccc([C@H]2[C@H](CO)N3CCCCN(C(=O)Nc4ccccc4)C[C@@H]23)cc1
-22.2 | O=C(Cc1ccncc1)N1CC[C@@H]2[C@H]1c1cc(-c3cccc(F)c3)ccc1N[C@@H]2CO
5.9 | COc1ccc(NC(=O)N2C[C@@H](O)COC[C@@H]3O[C@@H](CC(=O)NCc4ccccc4OC)CC[C@H]32)cc1
1.2 | COc1ccc(CN2C[C@@H](O)COC[C@H]3O[C@@H](CC(=O)NCc4ccncn4)CC[C@@H]32)cc1
-2.8 | O=C(c1cnccn1)N1CC[C@@H]2[C@@H](CO)Nc3ccc(-c4cccc(F)c4)cc3[C@@H]21
-17.3 | O=S(=O)(c1ccccc1F)N1CC[C@H]2[C@H](CO)Nc3ccc(-c4cccc(F)c4)cc3[C@H]21
14.8 | COCC(=O)Nc1ccc2c(c1)C(=O)N(C)C[C@@H](OC)[C@@H](C)CN(C(=O)Cc1ccccn1)[C@H](C)CO2
1.2 | C[C@@H]1CN([C@@H](C)CO)C(=O)c2cc(NC(=O)CCC(F)(F)F)ccc2O[C@@H]1CN(C)Cc1ccc(-c2ccccc2)cc1
-11.3 | CO[C@H]1CN(C)C(=O)c2ccc(NC(=O)c3cnccn3)cc2OC[C@H](C)N(C(=O)C2CC2)C[C@H]1C
-0.3 | Cc1cccc(S(=O)(=O)N2CCCCN3[C@@H](CO)[C@H](c4ccc(C#CC5CC5)cc4)[C@@H]3C2)c1
-13.4 | O=C(C[C@@H]1CC[C@@H]2[C@H](COC[C@@H](O)CN2Cc2cccc(-c3ccncc3)c2)O1)N1CCCCC1
-1.5 | COc1ccc(C#Cc2ccc([C@H]3[C@@H](CO)N4CCCCN(S(=O)(=O)c5ccccc5)C[C@@H]34)cc2)cc1
-33.4 | COc1ccc(C#Cc2ccc([C@@H]3[C@@H](CO)N4CCCCN(Cc5ccccc5F)C[C@H]34)cc2)cc1
-7.6 | CN(C)C(=O)C[C@H]1C[C@H]2c3cc(NS(=O)(=O)c4ccccc4)ccc3O[C@H]2[C@@H](CO)O1
-0.5 | COc1ccccc1-c1ccc([C@H]2[C@@H](CO)N3CCCCN(C(=O)c4ccncc4)C[C@H]23)cc1
-11.8 | CCC(=O)N1[C@@H](CO)[C@H](c2ccccc2)[C@@H]1CN(C)C(=O)CN1CCOCC1
-0.7 | COc1ccc(S(=O)(=O)N(C)C[C@@H]2Oc3c(NC(=O)C4CCOCC4)cccc3C(=O)N([C@@H](C)CO)C[C@H]2C)cc1
-11.9 | COCC(=O)N1[C@H](CO)[C@H]2c3ccccc3N(C(=O)NC(C)C)C[C@H]21
-8.1 | CN1c2ccc(-c3ccccc3)cc2[C@H]2[C@H](CCN2C(=O)c2ccccc2)[C@H]1CO
14.6 | C[C@H](CO)N1C[C@H](C)[C@@H](CN(C)Cc2ccc(C(=O)O)cc2)OCc2ccccc2-c2c(n(C)c3ccccc23)C1=O
-4.0 | C/C=C/c1ccc([C@@H]2[C@H](CO)N(C(=O)NCCC)[C@H]2CNC(=O)C2CC2)cc1
6.8 | O=C(c1ccc(F)cc1)N1[C@H](CO)[C@@H]2c3ccccc3NC[C@@H]21
-4.6 | C[C@@H]1CN([C@@H](C)CO)C(=O)c2c(c3ccccc3n2C)-c2ccccc2CO[C@H]1CN(C)Cc1ccncc1
-5.2 | C/C=C/c1ccc([C@H]2[C@@H](CO)N(C(C)=O)[C@H]2CNC(=O)CC2CC2)cc1
1.6 | CCC(=O)Nc1ccc2c(c1)C(=O)N(C)C[C@@H](OC)[C@H](C)CN(C(=O)COC)[C@H](C)CO2
-5.6 | O=C(C[C@@H]1CC[C@@H]2[C@H](COC[C@H](O)CN2Cc2ccncc2)O1)NCc1ccncc1
-10.3 | CN1c2ccc(C3=CCCCC3)cc2[C@@H]2[C@@H](CCN2S(=O)(=O)c2ccccc2F)[C@H]1CO
-2.6 | Cc1ccc(S(=O)(=O)N(C)C[C@H]2Oc3ccc(NC(=O)C4CC4)cc3C(=O)N([C@H](C)CO)C[C@@H]2C)cc1

Further results
Yeast UUG start | structure
11.7 | C[C@H](CO)N1C[C@H](C)[C@@H](CN(C)C(=O)Nc2ccc(F)cc2)Oc2ccc(NC(=O)CCC(F)(F)F)cc2C1=O
-2.0 | CCN(C[C@H]1[C@H](c2ccccc2)[C@H](CO)N1C(C)=O)C(=O)NC(C)C
-4.2 | COc1cccc(-c2ccc3c(c2)[C@@H]2[C@@H](CCN2C(=O)c2ccccn2)[C@@H](CO)N3)c1
11.1 | O=S(=O)(c1ccccc1)N1CCCCN2[C@H](CO)[C@@H](c3ccc(C#CC4CCCC4)cc3)[C@@H]2C1
7.6 | O=C(C1CC1)N1CCCCN2[C@H](CO)[C@H](c3ccc(C#CC4CC4)cc3)[C@@H]2C1
18.6 | COc1ccccc1NC(=O)N1C[C@@H]2[C@H](c3ccccc31)[C@H](CO)N2CC1CCOCC1
-22.8 | COCCNC(=O)C[C@H]1CC[C@@H]2[C@H](COc3ccc(NC(=O)c4cc(C)on4)cc3C(=O)N2C)O1
-8.9 | O=C(c1ccccc1F)N1CC[C@@H]2[C@H](CO)Nc3ccc(C#Cc4ccc(F)cc4)cc3[C@@H]21
-4.6 | CNC[C@@H]1Oc2ccc(NS(=O)(=O)c3ccc(C)cc3)cc2C(=O)N([C@H](C)CO)C[C@@H]1C
6.6 | C[C@H](CO)N1C[C@H](C)[C@H](CN(C)Cc2ccc3c(c2)OCO3)Oc2c(NC(=O)Nc3ccc(C(F)(F)F)cc3)cccc2C1=O
2.9 | C[C@H](CO)N1C[C@H](C)[C@H](CN(C)S(=O)(=O)c2ccc(C#N)cc2)OCc2ccccc2-c2ccccc2C1=O
0.0 | COc1cccc(-c2ccc3c(c2)[C@H]2[C@H](CCN2C(=O)c2ccc4c(c2)OCO4)[C@@H](CO)N3C)c1
4.0 | COc1cccc(S(=O)(=O)Nc2ccc3c(c2)C(=O)N(C)C[C@H](OC)[C@@H](C)CN(Cc2ccccc2F)[C@H](C)CO3)c1
1.0 | C[C@@H]1CN([C@H](C)CO)C(=O)c2cccc(N(C)C)c2O[C@@H]1CN(C)C(=O)Nc1ccc(F)cc1
-8.5 | C[C@H](CO)N1C[C@H](C)[C@H](CN(C)Cc2ccc(C(=O)Nc3ccccc3N)cc2)Oc2ccc(NC(=O)Cn3cnnn3)cc2C1=O
-9.4 | Cc1ccc(S(=O)(=O)Nc2ccc3c(c2)C(=O)N([C@@H](C)CO)C[C@@H](C)[C@H](CN(C)C)O3)cc1
-0.5 | CC(C)COC(=O)N(C)C[C@@H]1OCc2cn(nn2)CCCC(=O)N([C@H](C)CO)C[C@H]1C
1.3 | Cc1ccccc1S(=O)(=O)N1C[C@@H](O)COC[C@@H]2O[C@@H](CC(=O)N3CCOCC3)CC[C@H]21
-30.1 | COc1ccccc1S(=O)(=O)N1CC[C@@H]2[C@H](CO)Nc3ccc(-c4ccccc4F)cc3[C@@H]21
-6.9 | C[C@@H]1CN([C@@H](C)CO)C(=O)CCCn2cc(nn2)CO[C@H]1CN(C)Cc1ccc(O)cc1
-9.3 | O=C(C1CC1)N1C[C@H]2[C@@H](c3ccccc31)[C@@H](CO)N2C(=O)c1ccccn1
27.7 | CCC(=O)N1[C@H](CO)[C@@H](c2ccccc2)[C@@H]1CN(C(C)C)S(C)(=O)=O
7.1 | CN(C)C(=O)c1ccc(-c2ccc([C@H]3[C@H]4CN(C(=O)C5CCCC5)CCCCN4[C@H]3CO)cc2)cc1
-2.4 | CC(=O)N1CCCCN2[C@H](C1)[C@H](c1ccc(-c3cccc(C)c3)cc1)[C@@H]2CO

Only part of the results is shown (hit frequency here may not be typical).
